# HIV TAR-Tat – HIV-1 TAR-Tat binding disruption | z-score (no concentration beside the values) | 100,000 tested, 0.6% active | AID 1259389 | HIV-1 TAR RNA, Tat peptide displacement FRET; stronger effect = higher value;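 further: score is relative to mean and SD of negative controls; some compounds called inactive have numbers as strong as hits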
# CDC25B-CDK2 inh – human CDC25B-CDK2/CyclinA binding inhibition; P30305+P24941; HTRF CDC25B-CDK2/CyclinA binding, anti-His/anti-Flag; stronger effect = higher value; z-score (no concentration beside the values); 94,000 tested, 0.72% active; AID 1259370;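 further: score is relative to mean and SD of negative controls; strong numbers were not always called active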
# The depositor's hits bear a star; . = not tested or not shown.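 How the source made its calls: active means z-score from 3 up in half or more of its runs; inactive means the rest.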
canonical_smiles | HIV TAR-Tat | CDC25B-CDK2 inh
Cc1cc2c(cc1S(=O)(=O)N1CCCC(C)C1)OCCN2C (stereo not drawn) | 1.7 | .
Cc1cc(F)ccc1S(=O)(=O)Nc1ccc2oc(C)c(C(=O)OC(C)C)c2c1 | 2.7 | -1.8
Cc1ccc(C(=O)CSc2ncn[nH]2)cc1C | 1.4 | -2.8
Cc1ccc(-c2n[nH]c(=O)c3c2CCCC3)cc1S(=O)(=O)NC1CCCC1 | 1.4 | -0.79
O=C(O)CN1Cc2ccccc2C1=O | 1.5 | .
COc1cnc(CSc2nnc(C)s2)cc1OCC(=O)NC(C)(C)C | 0.84 | .
O=C(CCc1nnc2ccc(NCc3ccc4c(c3)OCO4)nn12)Nc1ccccn1 | 0.65 | .
CN1C(=O)c2ccccc2C(C(=O)O)C1c1cccc(F)c1 (stereo not drawn) | . | -0.6
O=C(CSc1nc2ccccc2nc1N1CCOCC1)NC1CC1 | -0.22 | -0.39
C#CCSCc1nc2ccccc2[nH]1 | -2 | 1.2
Cc1ccsc1CCNC(=O)C1CCN(c2ccc(-c3cccs3)nn2)CC1 | -0.72 | .
CC(C)c1ccc(Nc2c(-c3cccs3)nc3cnccn23)cc1 | . | 0.74
Cc1cc(C)c2c(=O)[nH]n(C3CCCCC3)c2n1 | 2.2 | 1.2
CC(C)(C)c1sc(N)nc1-c1ccccc1 | 0.94 | -0.17
O=c1cc(CSC(=S)N2CCSCC2)c2ccccc2[nH]1 | . | -0.99
Cc1ccc(C(c2sc3nc(C)nn3c2O)N2CCN(c3ccc(F)cc3)CC2)cc1 (stereo not drawn) | . | -1.1
Cc1cc2c(cc3c(=O)n(CCCC(=O)O)nc(C)n32)o1 | 0.67 | 2.1
COc1ccc(OCC(O)Cn2c(N3CCCCCC3)nc3c2c(=O)[nH]c(=O)n3C)cc1 (stereo not drawn) | . | -0.67
CCOc1ccccc1NS(=O)(=O)c1ccc(-c2cc(C(F)(F)F)on2)s1 | 1.2 | .
CC1CSc2ccc(S(=O)(=O)N3CCn4c3nc3ccccc34)cc2NC1=O (stereo not drawn) | -0.34 | .
COc1cccc(C)c1OC(=O)c1cc(F)cc(Cl)c1 | . | -3.4
COc1ccccc1C1Nc2ccccc2-n2cc3c(=O)n(C)c(=O)n(C)c3c21 (stereo not drawn) | 1.9 | -1.3
CC(=O)O[C@H]1C[C@@H](OC(C)=O)C(C)(C)C2CC(=O)[C@]3(C)C(CC[C@@]4(C)[C@H](C(=O)O)OC(=O)C5OC543)[C@]21C (stereo partly drawn) | 3.4 | .
Cn1c(=O)oc2cc(S(=O)(=O)Nc3ccccn3)ccc21 | . | -1.1
CCOc1ccc(Nc2c(O)c(=O)c2=O)cc1 | -1.3 | .

# (listing goes on)
canonical_smiles | HIV TAR-Tat | CDC25B-CDK2 inh
Cc1ccc2nc(-n3nc(C)c4c3NC(=O)CC4c3ccc(C(=O)O)cc3)sc2c1 (stereo not drawn) | 2.8 | .
Cc1c(-c2nc(-c3ccc(Cl)cc3)no2)nnn1-c1ccc(F)cc1 | 0.05 | .
Cc1ccc(NS(=O)(=O)c2ccc(N)c(S(N)(=O)=O)c2)c(C)c1 | 1.2 | -0.87
Cc1ccc(CSc2nc3ccncc3n2Cc2ccc(C(=O)O)cc2)cc1 | 1.7 | -1.6
Cc1ccc2c(c1)C(Cc1ccccc1F)C(=O)N2 (stereo not drawn) | -0.26 | -1.9
Cc1cc(C)nc(SCCS(=O)c2ccc(C(C)(C)C)cc2)n1 (stereo not drawn) | 2 | -1.2
CC1CN(c2ccccc2)c2nc3c(c(=O)n(CCN4CCOCC4)c(=O)n3C)n2C1 (stereo not drawn) | . | -0.86
CCc1oc2cc(OC(C)C(=O)OC)ccc2c(=O)c1-c1ccc2c(c1)OCCO2 (stereo not drawn) | . | 0.13
Fc1ccc(OCc2nc(-c3ccccc3)no2)cc1 | -2 | -0.71
O=C(CSCc1cnn(-c2ccccc2)c1-n1cccc1)NCCN1CCOCC1 | 1.7 | 0.92
Cc1cc(C)c(-c2c(NCC(C)c3ccccc3)c(=O)c2=O)cc1C (stereo not drawn) | 0.55 | .
CC1=C(C(=O)N2CCCCC2)C(c2ccc(Br)cc2)C2=C(CCCC2=O)N1 (stereo not drawn) | 2.4 | .
Cc1cc(=O)c2cc(Cl)ccc2[nH]1 | . | -2.2
CCOC(=O)N1CCC2(CC1)OC(=O)C(C)=C2C(=O)NCCCN1CC(C)CC(C)C1 (stereo not drawn) | 0.67 | .
COCc1cc(=O)n2[nH]c(SCc3ccccc3)nc2n1 | -0.57 | 0.01
Cc1nn(C(C)C(=O)NC(C)C)c2ccccc12 (stereo not drawn) | 0.5 | -1.5
COc1cccc(N2CCN(S(=O)(=O)c3ccc(-n4cnnn4)cc3)CC2)c1 | 0.81 | -0.86
O=C(NCc1ccccn1)c1cc2c(s1)-c1ccc(Cl)cc1S(=O)(=O)C2 | 1 | -3
COC(=O)c1cc(S(=O)(=O)NCCc2c[nH]c3ccccc23)oc1C | . | 0.37
CCOC(=O)c1sc(NC(=O)C(CC)SC2=NCCS2)nc1C (stereo not drawn) | . | 1.4
C=CCSc1nc2nc3c(cc2c(=O)n1-c1ccccc1C)COC(C)(C)C3 | . | -0.21
O=C(NCC(c1ccco1)N1CCCC1)c1cc(=O)c2cc(Br)ccc2o1 (stereo not drawn) | 0.2 | -1.3
CCOC(=O)N1CCN(CC(=O)Nc2sc(CC)cc2C(=O)c2ccc(OC)cc2)CC1 | . | -2.6
CC(=O)N1N=C(c2cc(-c3ccc4ccccc4c3)n[nH]2)OC1c1ccccn1 (stereo not drawn) | -0.74 | .
N#Cc1nc(COc2ccccc2Cl)oc1N1CCOCC1 | 1.1 | 1.3

# Rewritten with values under each structure: entries from further up.
# Each structure is followed by: HIV TAR-Tat	CDC25B-CDK2 inh
Cc1cc(C)nc(SCCS(=O)c2ccc(C(C)(C)C)cc2)n1 (stereo not drawn)
 : 2	-1.2
CC1CN(c2ccccc2)c2nc3c(c(=O)n(CCN4CCOCC4)c(=O)n3C)n2C1 (stereo not drawn)
 : .	-0.86

# Whole records as entered above. Order of screens: HIV TAR-Tat | CDC25B-CDK2 inh
# `Cc1ccc(CSc2nc3ccncc3n2Cc2ccc(C(=O)O)cc2)cc1` is listed as 1.7 | -1.6
# `Cc1cc(C)nc(SCCS(=O)c2ccc(C(C)(C)C)cc2)n1` (stereo not drawn) is listed as 2 | -1.2
# `CCOC(=O)N1CCC2(CC1)OC(=O)C(C)=C2C(=O)NCCCN1CC(C)CC(C)C1` (stereo not drawn) is listed as 0.67 | .
# `O=C(CSCc1cnn(-c2ccccc2)c1-n1cccc1)NCCN1CCOCC1` is listed as 1.7 | 0.92
# `CCOC(=O)N1CCN(CC(=O)Nc2sc(CC)cc2C(=O)c2ccc(OC)cc2)CC1` is listed as . | -2.6

# Next section.
canonical_smiles | HIV TAR-Tat | CDC25B-CDK2 inh
C#CCn1c(CCCC)nc2ccccc21 | 1.5 | -1.9
CN(Cc1ccccc1)C(=O)Cn1nnc2sc3c(c2c1=O)CCCC3 | -0.12 | -0.7
CCCCNC(=O)C1CCC(Cn2c(=O)c3sccc3n(C)c2=O)CC1 (stereo not drawn) | 0.06 | .
CC(C)COC(=O)CN1C(=O)C2C3c4ccccc4C(c4ccccc43)C2C1=O (stereo not drawn) | -0.17 | -1.2
O=c1oc2cc3occ(-c4ccc(F)cc4)c3cc2c2c1CCC2 | . | -1.4
COC(=O)c1ccc(Oc2c(C)oc3cc(O)ccc3c2=O)cc1 | . | 0.33
CCc1ccccc1-n1nnc(-c2nc(-c3ccccc3F)no2)c1C | -0.04 | .
O=C(Nc1cccc(O)c1)c1cc2nc(-c3cccs3)cc(C(F)(F)F)n2n1 | 1.2 | 2.1
Cc1csc(NC(=O)Cc2sc(C)nc2-c2cccs2)n1 | -1.2 | -1
CCCn1c2ccccc2c2cnn(CC(=O)N3CCN(C)CC3)c(=O)c21 | 1.3 | .
O=C(Cn1c(=O)c2cccn2c2cccnc21)NCc1ccc2c(c1)OCO2 | 0.04 | .
CC1(C)c2ccccc2N2CCC(=O)NC21/C=C/c1cccs1 (stereo not drawn) | . | -2.1
COc1cc(=O)n(C)c2c(O)cccc12 | 1.4 | .
CCN(C(=O)c1ccc([N+](=O)[O-])o1)c1ccccc1 | 1.3 | -1.5
C=CCn1c(CCCO)nc2ccccc21 | 2.8 | -1.6
COc1cccc(OC)c1OC(=O)NC(=O)c1c(OC)ccc([N+](=O)[O-])c1OC | . | 0.2
C=C1c2ccccc2NC(=O)N1c1ccc(F)cc1 | . | -1.9
NC1COS(=O)OC1c1ccc([N+](=O)[O-])cc1 (stereo not drawn) | . | -1.9
NC(=O)c1cc(S(=O)(=O)N2CCOCC2)cs1 | 0.33 | .
O=c1[nH]cccc1-c1nc(-c2ccccc2)no1 | -1.1 | -2.3
NC(=O)c1cnc2n(c1=O)CCS2 | . | 0.4
Cc1ccc(C(=O)c2cnc3cc4c(cc3c2N2CCOCC2)OCCO4)cc1 | -0.15 | -1.6
CCN(CC)CCCNC(=O)c1c(O)c2c([nH]c1=O)CCCC2 | 1.7 | .
Cc1cc(C)cc(OCc2cc(=O)n3nc(C)sc3n2)c1 | 2 | -0.23
Clc1cccc(CN2CCN(C3CCCCCC3)CC2)c1 | . | 0.4

# Next entries follow:
canonical_smiles | HIV TAR-Tat | CDC25B-CDK2 inh
Cc1c(C)c(C)c(S(=O)(=O)Oc2cc(Cl)cc(Cl)c2)c(C)c1C | . | -0.95
Cc1nc(N2CCN(C)CC2)c2c3c(sc2n1)CCCC3 | . | -2.6
Cc1sc2ncn(CC(=O)NCCCC(=O)N3CCOCC3)c(=O)c2c1C | 0.93 | -1.8
COc1ccc(Cn2c(CO)cnc2SCc2cccc(F)c2)cc1 | 0.24 | .
CN(CC(=O)NCc1ccco1)S(=O)(=O)c1ccc2c(c1)CCCC(=O)N2 | 2 | .
Brc1cc2c(cc1[C@H]1Nc3ccccc3[C@H]3C=CC[C@H]31)OCO2 | . | -2.5
CCOc1ccc(S(=O)(=O)[C@H]2CS(=O)(=O)C[C@@H]2NCCc2cccs2)cc1 | -1.1 | 0.79
COc1ccc(S(=O)(=O)N2CC(C)OC(C)C2)cc1OC (stereo not drawn) | . | -0.65
Cn1c(CCNC(=O)c2[nH]nc3c2CCc2ccccc2-3)nc2ccccc21 | 0.27 | .
CCOC(=O)c1c(NC(=O)Nc2ccc(Cl)cc2)sc2c1CC(C)(C)OC2 | 0.27 | -1.8
CN(Cc1ccccc1)C(=O)Cn1cccc1C(=O)c1ccccc1 | 1 | 1.5
CCOC(=O)c1cc(-c2ccc(Cl)cc2)oc1/C=N/OC(=O)c1ccco1 | . | -1.4
COc1ccc(-c2nc3ncccn3c2NCc2ccccc2OC)cc1 | 0.15 | .
CC(C)c1ccc(OCc2cc(=O)n3c(-c4ccccc4)csc3n2)cc1 | -1.1 | -2.9
CCOC(=O)N1CCN(C(=O)Cc2c(C)[nH]n(-c3nc(C)c(C)s3)c2=O)CC1 | -1.6 | -1.4
COc1ccc(/C=C2/N=C(c3cc([N+](=O)[O-])cc([N+](=O)[O-])c3)OC2=O)cc1OC | . | -0.91
CCCn1cc(S(=O)(=O)c2cc(C)ccc2C)c(=O)c2cc(F)c(F)cc21 | 1 | -2.5
Clc1ccc(-c2noc3ncnc(N4CCCCC4)c23)cc1 | 2.5 | -0.89
O=C(NCCCN1CCc2ccccc2C1)C1CCN(c2ccc(-c3cccs3)nn2)CC1 | 0.54 | .
CCN(Cc1cc(OC)c(OC)c(OC)c1)C(=S)Nc1cccc(SC)c1 | . | -0.27
Cn1nnnc1SCCNCc1ccc(-c2ccccc2)cc1 | 0.78 | -1.9
Cc1nc2c(sc3nc4c(cc32)COC(C)(C)C4)c(=O)n1Cc1ccc(F)cc1 | -0.4 | .
CC1=C(C(=O)NC2CCCC2)C2(CCN(S(=O)(=O)c3cccs3)CC2)OC1=O | -0.57 | .
Cn1c(=O)c2c(-c3cccc(Br)c3)n(CC(N)=O)cc2n(C)c1=O | 1 | -1.2
O=C(CSc1nc(-c2ccccc2)[nH]c1-c1ccccc1)NC1CCCC1 | 1.3 | -2.4

# Next compounds.
canonical_smiles | HIV TAR-Tat | CDC25B-CDK2 inh
CC(=O)c1ccc(N2CCN(C(=O)CCCc3nnc4n5nc(C)nc5c5ccccc5n34)CC2)cc1 | . | -1.2
O=C(NCCN1CCOCC1)c1c(O)nc2ccccn2c1=O | -1.5 | -1.7
C=CCOC(=O)C1=C(C)NC2=C(C(=O)CCC2)C1c1ccc(C)cc1 (stereo not drawn) | -15 | -1.4
O=C(Nc1ccccc1NC(=O)c1c(F)cccc1F)c1c(F)cccc1F | . | -0.93
O=C(Nc1ccc2[nH]c(=O)sc2c1)c1cccs1 | 0.91 | .
O=C(CCCN1C(=O)c2ccccc2C1=O)Nc1ncn[nH]1 | . | 0.58
Cn1cc(S(=O)(=O)N2CCOCC2)cc1C(=O)N1CCCc2ccccc21 | 2.8 | .
COC(=O)C1=C(C)N2C(=O)CSC2=NC1c1ccc2c(c1)OCO2 (stereo not drawn) | 0 | 0.16
Cc1cc(C)c(S(=O)(=O)N2CCN(S(=O)(=O)c3c(C)cc(C)cc3C)CC2)c(C)c1 | 0.25 | 0.19
Clc1ccc(Nc2c3c(nc4nncn24)CCC3)cc1 | 3.6 | -3
CC1CCc2onc(C(=O)N(C)c3ccccc3)c2C1 (stereo not drawn) | 2.2 | .
Cc1ccc2nc(Nc3ccccc3O)c3nncn3c2c1 | 0.52 | -0.72
COC(=O)COC(=O)c1sc(=S)n(C)c1C | 2 | 0.85
CC(C)C(NS(=O)(=O)c1ccc2c(c1)CCCC(=O)N2)C(=O)N1CCc2ccccc21 (stereo not drawn) | 1.3 | .
COc1cc2c3c(c1OC)C1(C=CC(=O)C=C1)CC3N(S(=O)(=O)c1ccc(C)cc1)CC2 (stereo not drawn) | -0.33 | -0.58
O=C(OCC1CC(c2ccccc2)=NO1)c1ccc2ccccc2n1 (stereo not drawn) | . | -1.1
C=CCSc1nc(=O)c2c(n1C)NC(=O)CC2c1ccc(O)cc1OC (stereo not drawn) | -0.61 | -0.92
